# Calb biofilm kill: mixture kills Candida albicans biofilm cells. C. albicans biofilm persisters + clotrimazole, fluorescence viability; primary screen in compound mixtures of four per well. hit rate 0.02% among 120,000. inhibition, % at 7.6 µM;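 active means inhibition above 30.3% in the primary screen of four-compound pools, then above 30% when the compound was retested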;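 further: compounds exposed to preformed 24 h biofilms for 48 h; the number belongs to the whole pool; some results filed as inactive read as strong as hits; inactives centre near 12; 0% = biofilm with clotrimazole alone and 100% = kill control; retested singly at about 60 µM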
#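 Assay system: C. albicans biofilms / Medium: RPMI/MOPS medium, pH 7.0 / Schedule: biofilm formation 24 h, compound exposure 48 h, 37 °C / Measured by: Alamar Blue fluorescence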
# * hit, by the source's call.
Compound	Calb biofilm kill
Cc1cc(C(=O)N/N=C/c2ccc([N+](=O)[O-])cc2)c(C)o1	9
O=C(CCCC(=O)N1CCN(c2ccc([N+](=O)[O-])cc2)CC1)c1ccccc1	6
COCCCN1C(=O)C(=O)/C(=C(/O)c2ccc(OC)cc2)C12C(=O)N(C)c1ccccc12 (configuration not stated)	17
O=c1[nH]c(-c2ccco2)nc2sc3c(c12)CCCC3	12
Cc1onc(-c2c(F)cccc2Cl)c1C(=O)O/N=C(\N)c1ccc([N+](=O)[O-])o1	23
S=C1NC[C@H](Cc2ccccc2)N1CCCCC1CCCCC1	19
CC1=C(C#N)C(c2ccc(O)cc2)C2=C(CC(C)(C)CC2=O)N1 (configuration not stated)	10
Oc1c(Br)cc(/C=N/NC(=S)NCc2ccco2)cc1Br	14
COc1cccc(-c2nc(CCl)cs2)c1OC	4
CC(=O)c1ccc(N2CCN(C(=O)Cc3n[nH]c(=O)c4ccccc34)CC2)cc1	10
O=C(OC1CCOC1=O)c1cc(-c2cccc(Br)c2)nc2ccccc12 (configuration not stated)	15
CS(=O)(=O)N1CCN(c2ccccc2NC(=S)NC(=O)c2ccccc2[N+](=O)[O-])CC1	15
Cc1cc(C)nc(N2CCN(C(=O)CCC(=O)Nc3nnc(C(C)C)s3)CC2)n1	17
C[C@@]12CCC=C[C@H]1[C@H](c1ccoc1)N(Cc1ccccc1)C2=O	16
Cc1cccc(C(=O)O/N=C(/c2ccccc2)c2ccncc2)c1	17
Cc1cc(NS(=O)(=O)c2ccc(NC(=O)CSc3nc4ncc(Br)cc4[nH]3)cc2)nc(C)n1	12
CC1CC(C)(C)NC(=S)N1CC(=O)NCc1ccc2c(c1)OCO2 (configuration not stated)	15
c1ccc(CSc2ccc(-c3cccnc3)nn2)nc1	18
COc1ccccc1NC(=S)N(Cc1ccco1)Cc1cc2cccc(C)c2[nH]c1=O	9
CCN(c1ccccc1)S(=O)(=O)c1ccc(Cl)c(NC(=O)COC(=O)c2ccc(O)cc2)c1	3
CC1CCC2(CC1)SCC(=O)N2c1ccccc1 (configuration not stated)	8
O=C(N/N=C/c1ccccc1C(=O)O)c1cccc(S(=O)(=O)Nc2cc(Cl)ccc2Cl)c1	8
COc1ccc(N2CCN(C(=S)Nc3ccc(C)cc3C)CC2)cc1	28
O=S(=O)(NC(=S)Nc1ccccc1)c1ccc(F)cc1	15
CSC1=NS(=O)(=O)c2c(C)nn(C)c2S1	16

# Given as labelled records: part of the list above.
Molecule: Cc1cc(C(=O)N/N=C/c2ccc([N+](=O)[O-])cc2)c(C)o1
- Calb biofilm kill = 9
Molecule: c1ccc(CSc2ccc(-c3cccnc3)nn2)nc1
- Calb biofilm kill = 18
Molecule: O=S(=O)(NC(=S)Nc1ccccc1)c1ccc(F)cc1
- Calb biofilm kill = 15
Molecule: O=C(CCCC(=O)N1CCN(c2ccc([N+](=O)[O-])cc2)CC1)c1ccccc1
- Calb biofilm kill = 6

# The results go on.
Compound	Calb biofilm kill
Cc1ccc(C)c(Cn2c(=O)n(CCCC(=O)NCc3ccco3)c(=O)c3ccccc32)c1	14
O=C(/C=C/c1ccc2ccccc2n1)N1CCN(S(=O)(=O)c2ccc(F)cc2)CC1	11
Cc1ccc2c(c1)C(c1ccccc1)CC(=O)O2 (configuration not stated)	11
O=C(Nc1cccc(S(=O)(=O)N2CCCCC2)c1)c1ccc([N+](=O)[O-])o1	9
COCCNC(=S)Nc1ccc(S(=O)(=O)Nc2ncccn2)cc1	0
CCc1nnc(NC(=O)CSc2nnc3c(C)cc4c(C)ccc(C)c4n23)s1	15
CC1(C)C(=O)C2(CCCCC2)C(=O)OC1c1cccc([N+](=O)[O-])c1 (configuration not stated)	7
O=C(NCc1cn(-c2ccccc2)nc1-c1ccccc1)c1cccc([N+](=O)[O-])c1	2
CCOc1cc(C(=O)Nc2cccc(C(C)=O)c2)ccc1OCC(=O)N1CCCCC1	7
Cc1ccc(OCC(=O)N2c3ccccc3CC2C)c([N+](=O)[O-])n1 (configuration not stated)	1
Cc1onc(-c2c(Cl)cccc2Cl)c1C(=O)NN1CCCCCC1	36
CO/N=C\CC(=O)Nc1ccc(Oc2ccccc2)cc1	3
Cc1nc2c(=O)[nH]c3ccccc3c2o1	10
O/N=C/c1cn(-c2ccccc2)nc1-c1cccnc1	8
COc1cccc(OCC(=O)NNC(=O)C(=O)N2CCCC2)c1	21
CCOC(=O)c1nc2ccccc2c(=O)[nH]1	22
CCCC(=O)Nc1cc(C)c2c(=O)oc3ccccc3c2n1	21
CCCCC(=O)NS(=O)(=O)c1ccc(N=NN2CCOCC2)cc1	17
CC(C)(C)C(=O)C[n+]1ccc(C(N)=O)cc1	21
CC1(c2nnc(-c3ccccc3)o2)CC(c2ccc(Cl)cc2)=NO1 (configuration not stated)	10
Cc1ccc(CSc2nnc(SCC(=O)N/N=C/c3c[nH]c4ccccc34)s2)cc1	13
COc1ccccc1-n1cnnc1SC(C)C(=O)Nc1cccc([N+](=O)[O-])c1 (configuration not stated)	16
CCOC(=O)c1nnn2c1nc(SCC(C)=O)c1ccccc12	26
COc1ccc(OC)c(C(=O)c2ccc(C(=O)Nc3cccc4ccccc34)cc2)c1	12
Cc1ccccc1N=C1NC(=O)/C(=C/c2cccnc2)S1	29

# Compounds from the list above that have bromine (3):
Compound	Calb biofilm kill
Oc1c(Br)cc(/C=N/NC(=S)NCc2ccco2)cc1Br	14
O=C(OC1CCOC1=O)c1cc(-c2cccc(Br)c2)nc2ccccc12 (configuration not stated)	15
Cc1cc(NS(=O)(=O)c2ccc(NC(=O)CSc3nc4ncc(Br)cc4[nH]3)cc2)nc(C)n1	12

# Following part.
Compound	Calb biofilm kill
Cn1ccnc1Sc1cc(NCCCO)c([N+](=O)[O-])c2nonc12	9
O=C(NNC(=S)NC(=O)c1ccccc1[N+](=O)[O-])c1ccccc1	14
c1ccc(C2CNCc3c2ccc2ccccc32)cc1 (configuration not stated)	4
CCOC(=O)C1CCN(c2c(NCCN(CC)c3ccccc3)c(=O)c2=O)CC1	28
O=C(NC(C(=O)N/N=C/c1ccccn1)c1n[nH]c(=O)c2ccccc12)c1ccccc1 (configuration not stated)	17
CCCCc1nnc(NC(=O)c2nc3nccc(C)n3n2)s1	5
Cc1sc2nc(SC3CCOC3=O)n(Cc3ccccc3)c(=O)c2c1C (configuration not stated)	1
O=C(Nc1ccccc1F)c1c[nH]c(=O)[nH]c1=O	30
O=C(Nc1nc(-c2ccccc2)cs1)c1ccc2c(=O)n3c(nc2c1)CCCCC3	14
COc1ccccc1-c1cc(C(F)(F)F)nc(N2CCN(c3ccc(F)cc3)CC2)n1	16
CCC1(C)Cc2ccccc2-c2nc3n(c(=O)c21)CCS3 (configuration not stated)	13
CC(C)Oc1cccc(C(=O)NC(=S)Nc2cccnc2)c1	13
C[C@@H]1CC[C@H](O)/C=C/C(=O)O[C@H](C)CC[C@H](O)/C=C/C(=O)O1	23
CN(Cc1cnn(-c2ccc(F)cc2)c1)Cc1nc(Cc2ccccc2)no1	-1
Cn1c(=O)c2c(nc(N3CCOCC3)n2CCc2ccccc2)n(C)c1=O	11
Fc1c(F)c(F)c(N/N=C/c2c[nH]c3ccccc23)c(F)c1F	16
CCOC(=O)c1ccc(NC(=S)NC(=O)COc2ccccc2)cc1	9
O=C1c2ccccc2C(=O)N1CCCON1C(=O)c2ccccc2C1=O	14
Oc1ccc(-c2nccc(-c3ccc(Cl)cc3Cl)n2)cc1	2
O=C(NC(N1CCCCCC1)C(Cl)(Cl)Cl)c1ccccc1Cl (configuration not stated)	6
COc1cccc(/C(N)=N/OC(=O)Cc2ccccc2[N+](=O)[O-])c1	16
Clc1cccc(NCc2cn3cccnc3n2)c1	15
Cc1c(Cl)cccc1NC(=S)N1CCN(c2ccccn2)CC1	18
Cc1cc(C)cc(NC(=S)NCCSc2ccc(Cl)cc2)c1	18
O=S(=O)(c1cccc(-c2csc(N/N=C/c3ccco3)n2)c1)N1CCOCC1	26
CCCCCCCC(=O)NNC(=O)c1c(O)c2ccccc2n(CCC)c1=O	1
O=C(Nc1ccccc1)N1CCN(S(=O)(=O)c2ccccc2)CC1	12
C=CC#CC[N+]1(CC#Cc2ccccc2)CCOCC1	17
CCn1c(SCC(=O)N/N=C/C(C)=C\c2ccco2)nnc1-c1ccccc1	14
CCOc1ccc(NC(=O)CCCN2C(=S)NC(C)(C)CC2C)cc1 (configuration not stated)	24
CN(C)S(=O)(=O)c1ccc(N2CCCC2)c(C(=O)Nc2ccccc2OC(F)F)c1	10
Cc1ccc(-n2nnnc2SCC(=O)N(CC(C)C)c2c(N)n(CC(C)C)c(=O)[nH]c2=O)cc1	6
CCC(C)NCCCOc1ccc(Cl)cc1C(C)(C)C (configuration not stated)	20
Cc1cc(=O)oc2cc(OCC(=O)OCC(=O)Nc3ccc(C(N)=O)cc3)ccc12	18
CCn1cc(CNCc2cn[nH]c2-c2cc3ccccc3o2)cn1	9
Cc1ccc(CN2CCN(/N=C/c3cccs3)CC2)cc1	17
CCC1ON(C(C)C)C2c3nc4ccccc4n3CC12 (configuration not stated)	5
COC(=O)c1nnn(-c2nonc2N)c1CSc1nnc(N)s1	7
Oc1c(C(Nc2cccc(C(F)(F)F)c2)c2cccnc2)ccc2cccnc12 (configuration not stated)	6
CCOc1ccccc1/C=C(\NC(=O)c1ccccc1)C(=O)NCCC(=O)O	3
O=C(C[n+]1ccc(-c2nnc3n2CCCCC3)cc1)c1ccc(Cl)cc1	17
CCOC(=O)C(=NCCCN(C)C)NNc1ccc(Br)cc1	23
Clc1ccc(-n2nnc(-c3cccnc3Cl)n2)cc1Cl	20
CCN1CCN(CCCN(Cc2ccco2)C(=S)Nc2ccc(C)c(Cl)c2)CC1	11
COC(=O)c1cc(NC(=O)c2ccc(-c3ccccc3)cc2)ccc1Cl	-8
Nc1nc2nccc(-c3ccco3)n2n1	37
Cc1ccccc1-n1c(=S)[nH]c2nc3c(cc2c1=O)CCCC3	22
CCNC(=S)N/N=C(\C)c1ccc2c(c1)OCCO2	4
CN1C[C@@H]2C(c3ccc(C(F)(F)F)cc3)C3(c4ccccc4)CC2(C3)[C@H]1c1ccccc1 (some centres not stated)	19
CCc1ccc(OCC(=O)NC2CC(C)(C)NC(C)(C)C2)cc1	13

# Carrying on.
Compound	Calb biofilm kill
CN(Cc1cccs1)C(=O)CSc1nc(N)cc(N)n1	6
COc1ccc(CN(C)Cc2ccccc2)c(OC)c1OC	3
CCOC(=O)C1=C(C)C/C(=N\NC(=O)c2ccccc2O)CC1	0
CCOC(=O)c1sc(NC(=O)c2cc3ccccc3o2)nc1C	21
CCCC(C)c1nnc(NC(=O)CN2C(=O)c3ccccc3C2=O)s1 (configuration not stated)	7
C/C=C/C=C/C(=O)OC(C)C(=O)Nc1cc([N+](=O)[O-])ccc1OC (configuration not stated)	3
Cc1ccc(CNC(=O)C2=CCN(S(=O)(=O)c3ccc(C)cc3)CC2)cc1	17
CC1CCC(C(C)C)C(OC(=O)COC(=O)c2cc(O)ccc2N)C1 (configuration not stated)	16
COc1cc(/C=C/c2ccc3cccc([N+](=O)[O-])c3n2)ccc1OCC(=O)O	6
O=C1COCC(=O)N1CCc1c[nH]c2ccccc12	-4
Cc1ccc(C(C)C)c(OCc2ccc(C(=O)N/N=C/c3cccc(O)c3O)cc2)c1	9
COc1cccc(NC(=S)NC2CC3CCCC(C2)N3C2CCCC2)c1 (configuration not stated)	19
O=C(Cc1ccccc1)NNC(=S)Nc1ccccc1	17
O=C(N/N=C/C(Cl)=C/c1ccccc1)c1ccncc1	17
Cc1ccc(NC(=S)NNS(=O)(=O)c2ccc3ccccc3c2)cc1Cl	11
N#CCCn1cc(C(=O)Nc2ccc(C(=O)O)cc2)c(-c2cc3ccccc3o2)n1	30
CCOC(=O)c1c(C)c(C(=O)NCc2ccc(OC)cc2)c(C)n1C	16
Cc1cccc(-n2nc(C)c3c2NC2=C(C(=O)CCC2)C3c2ccccn2)c1 (configuration not stated)	11
CN1C(C(=O)NCc2cccc(C(F)(F)F)c2)CC2Cn3c(nc4cc(Cl)c(Cl)cc43)C21 (configuration not stated)	1
CC1=C(C(=O)N2CCCC(CCC(=O)NCc3ccc(F)c(F)c3)C2)OCCO1 (configuration not stated)	-4
O=C1C(=O)N(CNc2cccnc2)c2ccccc21	0
CCCNC(=O)c1nc(C)n(-c2cc(Cl)cc(Cl)c2)n1	17
CNc1ccc(Br)cc(C(=O)/C=C/c2ccc(Cl)cc2Cl)c1=O	4
CCOC(=O)c1cnc2ccccc2c1Nc1ccc(C(=O)O)cc1	15
O=C(Nc1ccc(C(F)(F)F)cc1)c1cc(S(=O)(=O)NCC2COc3ccccc3O2)ccc1F (configuration not stated)	14
CCOc1ccc2[nH]c3c(=O)n(CCC4=CCCCC4)cnc3c2c1	7
CCC(C)[C@H]1CNC(=S)N1CCc1cc(C(F)(F)F)cc(C(F)(F)F)c1 (some centres not stated)	16
Cc1c(Cl)cccc1N/C(=N/S(=O)(=O)c1cccs1)c1ccccc1	13
CC(=O)N1Cc2ccccc2C(C)CC12CCCCC2 (configuration not stated)	22

# Source: PubChem (PCMD)

# Some of the compounds tested; count on the stated rates, not on these rows.
